# Compound activity from PubChem.
# TRPV1 potentiator: HTS Assay for Compounds that Act as Potentiators of the Vanilloid Receptor 1; 320,000 compounds, 0.02% hits; TRPV1-expressing cells, Fluo-8 calcium influx, capsaicin EC20 potentiation; host cell line not named in the record; control for the full effect not named in the record; Transient receptor potential cation channel subfamily V member 1 (Homo sapiens), Q8NER1; potentiation, % at 8.33 µM; active means potentiation above 80%; inconclusive means 30% to 80%; inactive means below 30%; note: 0% is about no effect
# Target sequence (Q8NER1 whole entry, looked up): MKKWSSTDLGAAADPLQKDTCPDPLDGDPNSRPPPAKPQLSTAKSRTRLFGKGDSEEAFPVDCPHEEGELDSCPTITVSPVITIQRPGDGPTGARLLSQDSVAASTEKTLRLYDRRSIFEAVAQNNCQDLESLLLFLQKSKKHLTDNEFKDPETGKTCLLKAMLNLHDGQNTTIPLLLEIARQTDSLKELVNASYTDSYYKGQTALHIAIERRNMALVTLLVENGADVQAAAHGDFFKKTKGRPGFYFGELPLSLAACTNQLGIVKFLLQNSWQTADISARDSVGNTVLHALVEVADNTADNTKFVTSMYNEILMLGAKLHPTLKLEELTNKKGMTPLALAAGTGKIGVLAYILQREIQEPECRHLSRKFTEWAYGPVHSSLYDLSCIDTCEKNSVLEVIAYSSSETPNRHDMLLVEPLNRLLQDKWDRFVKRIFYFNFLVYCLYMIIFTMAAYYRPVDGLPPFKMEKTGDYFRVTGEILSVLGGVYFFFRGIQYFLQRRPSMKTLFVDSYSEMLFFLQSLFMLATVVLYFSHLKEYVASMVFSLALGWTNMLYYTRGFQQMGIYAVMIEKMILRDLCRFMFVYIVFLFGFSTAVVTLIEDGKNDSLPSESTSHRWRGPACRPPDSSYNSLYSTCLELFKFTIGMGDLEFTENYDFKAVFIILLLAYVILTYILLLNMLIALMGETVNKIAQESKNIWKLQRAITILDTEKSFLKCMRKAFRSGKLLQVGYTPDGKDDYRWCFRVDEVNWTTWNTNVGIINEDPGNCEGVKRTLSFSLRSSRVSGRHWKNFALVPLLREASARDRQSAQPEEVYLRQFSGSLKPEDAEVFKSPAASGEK
#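 Fluo-8 calcium influx in TRPV1-expressing cells, kinetic read (ex 480/em 520 nm). Compound added and read 3 min for agonist activity, followed by capsaicin at EC20 final and 2 min further read for enhancement.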
# Sfp inh: qHTS Assay for Inhibitors of Bacillus subtilis Sfp phosphopantetheinyl transferase (PPTase). Biochemical Sfp PPTase activity, qHTS. Potency, µM, for inactives: max response, negative = inhibition, actives largely listed as inhibitors. AID 1490, 2009. 310,000 compounds, 3.5% hits; active = well fitted inhibition curve with a large enough effect; inconclusive = small, poorly fitted or top-dose-only effect, or another doubt; inactive = no such curve, though single readings can be large or run the other way;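 note: the enzyme is Sfp with the accession as filed and its product quenches rhodamine fluorescence; potency is the fitted concentration of half-maximal effect; 0% = enzyme reaction without inhibitor and -100% = no enzyme wells; top concentration of the series not given in the record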
#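 Sfp 15 nM + cpd, 15 min RT; start w/ rhodamine-CoA 5 uM, BHQ-2-YbbR 12.5 uM (final); 50 mM Hepes pH 7.6, 10 mM MgCl2, 0.01% NP-40, 0.01% BSA; read 525/598 nm at 0 and 30 min.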
# ClpP mod: qHTS Assay for Activators of ClpP | purified B. subtilis ClpP, FRET peptide cleavage, 20 min | Potency, µM (titrated, usually from 57.5 µM), for inactives: at the highest dose activity change, negative = active | 340,000 compounds, 1.9% hits; active = well fitted falling curve with a large enough effect; inconclusive = small, poorly fitted or top-dose-only effect; inactive = no such curve, though single readings can be large or run the other way; note: potency is the fitted concentration of half-maximal effect; the source files actives as falling curves though it sought activators and does not explain the sign; nearly all actives have a fitted effect of over 65% in size; many hits overshoot -100%
# Target sequence (P80244 whole entry, looked up): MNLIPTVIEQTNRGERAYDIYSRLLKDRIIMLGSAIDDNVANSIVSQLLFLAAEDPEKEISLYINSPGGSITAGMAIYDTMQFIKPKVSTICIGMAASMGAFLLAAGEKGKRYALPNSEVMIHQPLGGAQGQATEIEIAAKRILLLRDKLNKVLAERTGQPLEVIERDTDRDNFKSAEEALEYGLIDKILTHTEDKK
#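 ClpP 10 microg/mL final, pH 8 Tris/KCl buffer with BSA, glycerol, Tween-20; compound pinned in; FRET-FV substrate; RT 20 min; Ex320/Em430; ΔFRET vs ADEP 5.8 microM, DMSO, no enzyme.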
# TRPML1 inh: qHTS for Inhibitors of the Human Mucolipin Transient Receptor Potential 1 (TRPML1) | activity change, negative = inhibition, % (no concentration beside the values) | TRPML1-inducible cells, Ca2+ dye fluorescence, FDSS; hits give low values; inhibition of EC80 agonist-evoked calcium signal | Mucolipin-1 (Homo sapiens), Q9GZU1 | 390,000 compounds, 0.02% hits; in the data active means activity change below about -50%; inconclusive means about -30% to -50%; inactive means above about -30%;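 note: stimulus is agonist 54-4 at its EC80 concentration; % is set by controls: 0 for no effect and ±100 for the full control effect; compound concentration not given in the record; the text of the record puts the active cut at -80%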
#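 TRPML1-DL cells, Tet-induced overnight (~16 h, 37 °C) at 1,500 cells/well, were loaded with Ca8 no-wash dye plus quencher for 45-90 min at room temperature. Compounds were pinned during FDSS kinetic reading; agonist 54-4 at EC80 (4 uM final) then added.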
# Menin MLL FP FL: qHTS Assay for Inhibitors Targeting the Menin-MLL Interaction in MLL Related Leukemias: Competition With Fluorescein Labeled MLL-derived Peptide; Fluorescence polarization, fluorescein-MLL peptide displacement from menin; FP activity change, % at 61.4 µM; 290,000 tested, under 10 active; inconclusive = falling polarisation curve, or a change in total fluorescence; inactive = total fluorescence flat and polarisation flat or rising; no compound was filed as active; the % refers to the polarisation; negative = inhibition;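 note: % of control where 0% means no effect; inhibitors lower the polarisation; unlabelled MLL peptide was the positive control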
# gsp ag: qHTS for Agonist of gsp, the Etiologic Mutation Responsible for Fibrous Dysplasia/McCune-Albright Syndrome: qHTS; gsp mutant cells, cAMP HTRF, 30 min; control for the full effect not named in the record; Potency, µM (top dose mostly 76.9 µM), for the others: at the highest dose activation (cAMP increase), most hits filed as activators; AID 624287, 2012; 340,000 compounds, 0.13% hits; active = well fitted activation curve with a large enough effect; inconclusive = small, poorly fitted or top-dose-only effect, or another doubt; inactive = no such curve, though single readings can be large or run the other way; cell line not stated here;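 note: phosphodiesterase inhibitor Ro 20-1724 added with compounds to block cAMP breakdown; potency is the fitted concentration of half-maximal effect; nearly all actives have a fitted effect of over 60% in size; about a fifth of the inactives were tested at one dose only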
#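 Cells stably selected in G418 were plated at 2000/well, grown 16-24 hr, then given compounds in DMSO with the PDE inhibitor […] (300 uM solution added) for 30 min at 37C; cAMP was read by HTRF.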
# gsp antagonist: qHTS for Antagonists of gsp, the Etiologic Mutation Responsible for Fibrous Dysplasia/McCune-Albright Syndrome: qHTS; gsp-mutant cells, cAMP HTRF, 30 min; control for the full effect not named in the record; Potency, µM (doses to about 76.9 µM), inactives show at the highest dose activity change, negative = inhibition, usual class: inhibitors; 340,000 compounds, 0.4% hits; active = falling curve of any shape with a large fitted effect; inconclusive = falling curve, mostly with a smaller effect; inactive = flat or rising curve; cell line not stated here;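 note: intracellular cAMP measured with PDE inhibitor Ro 20-1724 present during compound exposure; potency is the fitted concentration of half-maximal effect; % is set by controls: 0 for no effect and ±100 for the full control effect; nearly all actives have a fitted effect of over 65% in size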
#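 G418-selected cells were plated in DMEM/10% FBS for 16-24 h at 37C, then treated with compounds plus the PDE inhibitor […] (300 uM solution added) for 30 min at 37C. Intracellular cAMP was measured by HTRF after 30 min lysis at room temperature.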
# * marks the source's active call; other numbers are inactive results; ? = inconclusive; . = no result given; & = joins results of further samples; [ ] = another dose, or the depositor's remark.
nr	structure	TRPV1 potentiator	Sfp inh	ClpP mod	TRPML1 inh	Menin MLL FP FL	gsp ag	gsp antagonist
1	Cn1cccc1C(=O)Nc1nc(-c2ccccn2)cs1	22	-70%	-3.8%	12	4.8	?	5%
2	O=C(Nc1nccs1)c1cc(-c2ccccn2)nc2c(Cl)cccc12	-1	0%	-0.3%	-8	-0.7	-3%[15.4 µM]	4%
3	CCCCOP(=O)(c1ccc(N(C)C)cc1)C(O)c1ccc(N(C)C)cc1 (stereo not given)	-9	-9%	-4.9%	-7	1.4	?	-3%
4	COc1ccc(N2CCN(CC(=O)N3c4ccccc4CC3C)CC2)cc1 (stereo not given)	6	-12%	.	-9	-5.5	-5%	7%
5	CNC(=O)/C(C#N)=C\c1ccc(CNS(=O)(=O)c2ccccc2)o1	-3	11%	-2.7%	37	0.8	18%	5%
6	COc1ccc(OC)c(CC(=O)NC(c2ccccc2)c2ccccc2)c1	23	4%	.	-3	?	-26%	-2%
7	Cc1ccccc1NC(=O)COC(=O)CN1C(=O)NC(C)(C)C1=O	-1	3%	-0.8%	0	1.2	-1%	5%
8	O=C(CCN1C(=O)COc2ccccc21)NCCN1CCc2ccccc2C1	28	-5%	0.0%	-7	-0.7	-36%[inhibitor]	5%
9	CC(C)C[C@H](NC(=O)c1[nH]cnc1C(=O)N[C@@H](C)C(=O)OCc1ccccc1)C(=O)OC(C)(C)C	-19	31%[activator]	4.4%	-5	5.8	-30%	-8%
10	Cc1ccc(-c2nnc(SCC#CCOC(=O)c3cccs3)o2)cc1	13	-12%	-4.1%	7	2.9	-8%	-11%
11	Cc1noc(C)c1CSCC(=O)Nc1nc2ccc(S(C)(=O)=O)cc2s1	-21	.	.	19	.	-4%[15.4 µM]	-4%
12	COc1ccc(-n2ncc(N(C)n3cccc3)c(Cl)c2=O)cc1	-12	15%	-0.6%	-14	-1.3	-1%	8%[15.4 µM]
13	COc1ccc(CNC(=O)COC(=O)CCC(=O)c2cccs2)cc1	-1	27%	.	19	0.1	3%[15.4 µM]	8%
14	NC(=O)c1cc(Cc2ccccc2)sc1NC(=O)c1ccco1	7	-70%	-12%	7	2.1	-1%	14%
15	COc1ccc(NC(=S)Nc2ccccc2)cc1	27&18	-6%&9%	0.6%&-2.8%	-13&31	0.4&-0.5	?	4%&10%
16	Cc1nc(N2CCOCC2)nc(N2CCC(C)CC2)c1[N+](=O)[O-]	7	?	0.0%	24	-2.6	-14%	-11%
17	COc1ccccc1OC(=O)CCN1c2ccccc2Sc2ccccc21	?	22%	-6.3%	-23	5.7	-2%	-5%
18	O=C(Nc1nnc(C2CC2)s1)c1cc(Cl)sc1Cl	9	8%	-1.8%	-11	.	?	-18%
19	O=C(c1ccccc1NS(=O)(=O)c1cccs1)N1CCCC1	0	7%	0.1%	-19	-0.8	-4%	18%
20	COc1cc(NC(=O)c2cccs2)ccc1NC(=O)c1cc2ccccc2o1	5	9%	-3.0%	0	0.5	-19%	10%
21	CCN(CC)CCNC(=O)CNC(=O)c1nn(-c2ccc(OC)c(OC)c2)c(=O)c2ccccc12	9	11%	1.0%	-5	-4.2	7%[15.4 µM]	17%
22	Cc1c(S(=O)(=O)Nc2ccc3c(c2)OCCO3)cnn1C	4	11%	.	11	-1.8	15%[15.4 µM]	-1%
23	CCCNC(=O)C1CCN(c2nc(C)cc(C)n2)CC1	5	12%	16µM*	-16	-0.8	2%	-1%
24	COc1ccc(NC(=O)Nc2ccc(F)c(Cl)c2)cc1	-16	10%	2.9%	7	0.4	3%	-11%
25	COC(=O)C(NC(=O)c1cccnc1Cl)C(C)C (stereo not given)	6	12%	.	32	2.6	0%[15.4 µM]	6%
26	COc1cc(NC(=O)c2ccco2)ccc1NC(=O)C(C)C	3	-1%	-0.6%	-12	-1.6	?	3%
27	O=C(N/N=C/c1ccco1)c1cc(C2CC2)[nH]n1	-31	9%	-0.5%	-7	4.7	-1%[15.4 µM]	-7%
28	CCc1noc(C)c1C(=O)NNC(=O)COc1ccc(C)c(C)c1	18	.	-1.7%	-3	.	?	0%
29	O=C(NCc1csc(-c2cccs2)n1)Nc1cccc(Cl)c1	7	16%	-0.9%	15	-3.9	-4%[15.4 µM]	-6%
30	Cc1ccc(-c2nn(CCC(=O)NC(C)C)c(=O)c3ccccc23)cc1	-26	1%	.	-20	9.5	8%	-8%
31	COc1ccccc1C(=O)NCCCN1CCCC1=O	4	8%	-0.2%	9	7.9	0%	10%
32	Cc1nnc2sc(SCC(=O)N3CCc4ccccc43)nn2c1=O	.	.	0.6%	-1	.	9%	7%
33	CCOC(=O)N1CCC2(CC1)C(C#N)=C(N)Oc1n[nH]c(CSc3ccc(C)cc3)c12	-9	-2%	-0.1%	7	0.5	-31%[inhibitor]	-8%
34	O=C(NCC(c1ccco1)N1CCCC1)c1cccc(S(=O)(=O)N2CCOCC2)c1 (stereo not given)	3	.	-1.4%	-16	.	0%	5%
35	C#CC(C)(C)NC(=S)NC1CC2C=CC1C2 (stereo not given)	?	18%	0.6%	1	0.1	9%[15.4 µM]	15%
36	Cc1cc(C)c(-c2cc(NC(=O)CSc3n[nH]c(N)n3)n(-c3ccccc3)n2)cc1C	-8	12%	0.5%	-12	7.7	5%	?
37	CC(=O)c1ccc(-c2ccc(C(=O)NCC(c3ccco3)N(C)C)o2)cc1 (stereo not given)	.	.	.	16	.	?	1%
38	CCOc1ccc(CNCc2c(C(=O)O)n(Cc3ccccc3C)c3cc(OC)ccc23)cc1OC	4	.	-14%	-11	.	.	.
39	Cc1ccccc1NC(=S)c1ccc2ccccc2n1	4	28µM*	-0.8%	77	-4.6	-8%	5%
40	COc1ccc(-c2ccc3oc(-c4ccsc4)cc3c2)cc1	.	.	-1.3%	3	.	-26%	-17%
41	CC1CC(C)(C)NC(=S)N1CCC(=O)NCCc1ccc(Cl)cc1 (stereo not given)	-8	-4%	?	23	-4.9	-12%[15.4 µM]	-3%
42	C[C@@H]1CN([C@@H](C)CO)C(=O)CCCn2nncc2CO[C@H]1CN(C)S(=O)(=O)c1ccc(Oc2ccccc2)nc1	.	.	-2.4%	-3	.	?	.
43	O=S(=O)(NC1CCCCC1Oc1ccccc1)c1ccc(Cl)cc1 (stereo not given)	-3	5%	.	2	2.3	-7%[15.4 µM]	-7%
44	O=C(c1oc(=O)c2ccccc2c1-c1ccccc1)N1CCN(C2CCCCC2)CC1	.	8%	1.5%	-3	6.6	-80%[inhibitor]	-4%
45	O=C(O)c1ccccc1C(=O)NC1CCCc2ccccc21 (stereo not given)	17	-10%	.	-13	3.4	9%[15.4 µM]	9%
46	C=CCn1cnc2c(c1=O)c1nc3ccccc3nc1n2/N=C/c1cccc(OC)c1OC	2	-5%	0.5%	43	4.4	?	-25%
47	Nc1cc(-c2ccc(Br)cc2)nc2cc(-c3ccccc3)nn12	16	-3%	.	88	1.3	-8%[15.4 µM]	-2%
48	COc1ccc(CCC(C)NCc2ccccc2OC)cc1 (stereo not given)	-6	15%	-0.6%	-1	3.4	-20%	4%

# Copied from above, nos. 44 to 48
nr	structure	TRPV1 potentiator	Sfp inh	ClpP mod	TRPML1 inh	Menin MLL FP FL	gsp ag	gsp antagonist
44	O=C(c1oc(=O)c2ccccc2c1-c1ccccc1)N1CCN(C2CCCCC2)CC1	.	8%	1.5%	-3	6.6	-80%[inhibitor]	-4%
45	O=C(O)c1ccccc1C(=O)NC1CCCc2ccccc21 (stereo not given)	17	-10%	.	-13	3.4	9%[15.4 µM]	9%
46	C=CCn1cnc2c(c1=O)c1nc3ccccc3nc1n2/N=C/c1cccc(OC)c1OC	2	-5%	0.5%	43	4.4	?	-25%
47	Nc1cc(-c2ccc(Br)cc2)nc2cc(-c3ccccc3)nn12	16	-3%	.	88	1.3	-8%[15.4 µM]	-2%
48	COc1ccc(CCC(C)NCc2ccccc2OC)cc1 (stereo not given)	-6	15%	-0.6%	-1	3.4	-20%	4%

# Additional structures.
nr	structure	TRPV1 potentiator	Sfp inh	ClpP mod	TRPML1 inh	Menin MLL FP FL	gsp ag	gsp antagonist
49	COc1ccccc1OCC(=O)N1CCC2(CC1)CC(=O)c1ccccc1O2	-7	.	22µM*	4	.	-46%[inhibitor]	-1%
50	COc1ccc(OC)c2c1cc(C(=O)N[C@H](C(=O)N1CCC[C@H]1C(=O)O)C(C)C)n2C	1	-27%	-1.6%	.	-5.5	.	-14%
51	Cc1cc(C(=O)N2CCCC(CNS(=O)(=O)c3cccs3)C2)nn1C (stereo not given)	2	3%	-1.6%	1	22	4%[15.4 µM]	-4%
52	COc1cccc(OCc2nc3ccccc3c(=O)n2N)c1	10	11%	0.1%	-4	0.0	-1%	2%
53	CCn1ncc(/C=N/NS(=O)(=O)c2ccc(Cl)cc2)c1C	4	7%	-1.5%	1	1.2	-1%	2%
54	O=C(COC(=O)c1ccc(Br)o1)NC1CCCCC1	0	-14%	.	0	0.0	-12%[15.4 µM]	-4%
55	CCOC(=O)N1CCC(NC(=O)c2ccc(CO)c(C(=O)NC3CCN(C(=O)OCC)CC3)c2)CC1	3	20%	0.0%	11	-0.5	-58%[inhibitor]	6%
56	CCCCn1nnnc1NCc1cc(OC)c(OC)cc1OC	3	19%	0.9%	6	0.7	-16%	-17%
57	Oc1c(Br)cc(Br)cc1CNc1nccs1	-21	12%	0.8%	-18	-4.4	?	-8%
58	CCSC(=Nc1ccccc1)Nc1ccccc1	-4	14%	.	1	-1.4	-2%	-16%
